Source: PubChem (National Center for Advancing Translational Sciences (NCATS))
A647 autofl: A647 region autofluorescence; max dye-equivalent concentration, M; Compound fluorescence, A647 channel (570/671 nm), Tris buffer; 59,000 tested, under 10 active; active means above 1 µM dye equivalent; inconclusive means 0.1 to 1 µM; inactive means 0.1 µM or less;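 further: values scaled relative to a standard on each plate; highest value over a series up to 38 µM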
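Fluorescence read (570 nm ex, 671 nm em) after 15 min RT incubation of compounds in 100 mM Tris buffer, pH 8.0; values expressed as dye-equivalent concentration against a six-point A647 standard series on each plate.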
A488 autofl: compound autofluorescence in A488 spectral region | compound autofluorescence, A488 spectral region, dye equivalency; stronger effect = higher value | max dye equivalency, M | hit rate 0.1% among 59,000 | AID 591; active = above 10 nM dye equivalent; inconclusive = 1 to 10 nM; inactive = 1 nM or less; about half of its hits are not listed in these tables;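 further: highest value over a series up to 38 µM; compound alone in buffer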
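Autofluorescence read at ex 480/em 540 nm after 15 min RT in 100 mM Tris pH 8.0; compound signal normalized to A488 standard series on each plate, reported as dye-equivalent concentration at each test concentration.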
AID923: qHTS Assay for Allosteric/Competitive Inhibitors of Caspase-1: Spectroscopic Profiling in AFC Spectral Region. hit rate 1.1% among 75,000. compound fluorescence, AFC spectral region (405/520 nm); almost no hit is shown here. Potency, µM (highest dose often 57.5 µM), inactives show at the top dose fluorescence increase, usual class: activators. AID 923, 2007; active means well fitted activation curve with a large enough effect; inconclusive means small, poorly fitted or top-dose-only effect;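 further: potency means the concentration at half of the fitted maximal effect; 0% is about no effect; scaled to a free AFC standard on each plate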
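Compound autofluorescence profiled at 405 nm ex/520 nm em during kinetic caspase 1 run (50 nM enzyme, 5 uM Ac-WEHD-AFC, HEPES pH 7.5, 10 mM DTT). Titration up to 57 uM; baseline from regression intercept, normalized to AFC standard curve.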
TSHR ag: TSH receptor (human) agonism. HEK293-CNG-TSHR cells (CNG channel as cAMP sensor), membrane potential dye, cAMP. hit rate 0.48% among 73,000. P16473. Potency, µM (titrated, usually from 57.1 µM), inactives show at the highest dose activation, usual class: activators. AID 926; active = well fitted activation curve of enough size with the parental cells flat; inconclusive = any curve in the parental cells; inactive = parental cells flat and receptor cells flat or falling; further: potency means the concentration at half of the fitted maximal effect; % of control where 0% means no effect; weak receptor curves with flat parental cells got no call and are not listed
Target sequence (P16473 whole entry, looked up): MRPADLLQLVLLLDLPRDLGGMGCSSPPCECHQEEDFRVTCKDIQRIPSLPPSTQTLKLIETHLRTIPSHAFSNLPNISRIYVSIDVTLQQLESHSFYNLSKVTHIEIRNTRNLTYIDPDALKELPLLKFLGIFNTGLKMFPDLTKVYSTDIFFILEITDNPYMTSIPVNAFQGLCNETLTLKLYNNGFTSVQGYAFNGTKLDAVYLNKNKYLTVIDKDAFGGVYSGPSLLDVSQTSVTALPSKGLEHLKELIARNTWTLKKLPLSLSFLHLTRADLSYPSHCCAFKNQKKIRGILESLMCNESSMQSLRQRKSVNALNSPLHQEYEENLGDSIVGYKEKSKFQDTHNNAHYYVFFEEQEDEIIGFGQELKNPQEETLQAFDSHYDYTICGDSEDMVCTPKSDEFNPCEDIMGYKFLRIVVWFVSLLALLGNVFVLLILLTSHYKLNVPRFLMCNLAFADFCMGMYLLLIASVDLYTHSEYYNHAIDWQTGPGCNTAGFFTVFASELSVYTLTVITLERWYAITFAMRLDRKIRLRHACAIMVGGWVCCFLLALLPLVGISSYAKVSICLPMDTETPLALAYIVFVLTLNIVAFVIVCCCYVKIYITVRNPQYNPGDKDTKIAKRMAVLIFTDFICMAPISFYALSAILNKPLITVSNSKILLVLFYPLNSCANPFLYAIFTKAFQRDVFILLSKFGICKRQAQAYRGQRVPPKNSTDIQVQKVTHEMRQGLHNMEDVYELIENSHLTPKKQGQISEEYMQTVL
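HEK 293 cells stably expressing TSHR and a cAMP-gated CNG channel; parental CNG-only cells as counterscreen. Cells preloaded 60 min with membrane potential dye plus 100 uM RO 20-1724, then compound 30 min; fluorescence read at 590 nm.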
Resorufin fluor: resorufin region autofluorescence; Compound fluorescence, resorufin region 547/598 nm, buffer; stronger effect = higher value; max dye-equivalent concentration, M; hit rate 0.04% among 59,000; active = above 10 nM dye equivalent; inconclusive = 1 to 10 nM; inactive = 1 nM or less; a few of its hits are not listed in these tables; further: highest value over a series up to 38 µM
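Intrinsic fluorescence profiled in the resorufin window (ex 547 nm, em 598 nm) after 15 min at room temperature in pH 8.0 Tris buffer (100 mM); responses normalized against a six-point resorufin standard series as dye-equivalent concentration.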
* marks the source's active call; other numbers are inactive results; i = inactive; ? = inconclusive; nt = no result given; & = joins results of further samples; [ ] = another dose, or the depositor's remark. A portion of the library; count on the stated rates, not on these rows.

Results follow in this order: A647 autofl, A488 autofl, AID923, TSHR ag, Resorufin fluor
- COc1ccc(-c2ccc(=O)[nH]n2)cc1
  2.2e-08, i, 0.6%, 15%, i
- Cc1ccc(C)c(S(=O)(=O)N2CCC(c3nc4c(nnn4Cc4ccc(F)cc4)c(=O)[nH]3)CC2)c1
  2e-08, i, -1.8%, 3%, i
- CCOc1ccccc1C(=O)Nc1ccccc1O
  3.9e-08, i, 0.4%, 9%, i
- Cc1cc(C)nc(N2CCC(CNC(=O)CCc3ccccc3)CC2)n1
  1e-09, i, 1.4%, ?, i
- C[N+]1(CCOS(=O)C23CC4CC(CC(C4)C2)C3)CCOCC1 (centres undefined)
  3e-08, i, -0.1%, -2%, i
- CC(=O)OC[C@@H]1O[C@@H](O/N=C2/C[C@@H](O)[C@@H](O)[C@@H]3[C@@H]4C(=O)N(C(C)(C)C)C(=O)[C@H]4CC[C@@H]23)[C@H](OC(C)=O)[C@H](OC(C)=O)[C@@H]1OC(C)=O
  nt, nt, 0.7%[11.5 µM], 4%[11.4 µM], nt
- Cc1cccc(-c2nc(C#N)c(N3CCCCCC3)o2)c1
  1e-09, i, 0.6%, 25µM*, i
- O=C1CCC(c2ccc(-n3ccnc3)cc2)=NN1
  5e-08, i, -2.1%, ?, i
- O=C(Nc1ncnc2c1CCC2)C12CC3CC(CC(C3)C1)C2
  5.7e-09, i, 0.1%, ?, i
- CC(C)(C)C1CCc2onc(C(=O)Nc3cnn(Cc4ccc(F)cc4)c3)c2C1 (centres undefined)
  1.9e-08, i, -0.5%, ?, i
- CC(=O)Nc1ccc(NS(=O)(=O)c2cn(C)c(=O)n(C)c2=O)cc1
  nt, nt, -2.3%, ?, nt
- NC(=O)CSc1nnc(C2CC2)n1Cc1ccccc1
  3.7e-08, i, -2.1%, 28%, i
- COc1ccc(C2C(CC(=O)O)=C(O)C(=O)N2c2ccccc2)cc1 (centres undefined)
  3.5e-08, i, 0.6%, 11%, i
- Oc1c(C(c2ccccc2)N2CCCCC2)sc2ncnn12 (centres undefined)
  nt, nt, -1.5%, 8%, nt
- CC(=O)NCCNc1nc(-c2cccnc2)nc2ccccc12
  1.5e-08, i, 3.5%, ?, i
- O=C(Nc1sc2c(c1C(=O)O)CCC2)c1cccs1
  1.6e-09, i, 1.5%, 2%, i
- O=c1oc2ccccc2c2c1ncn2-c1ccccc1
  nt, nt, -0.8%, 25%[11.4 µM], nt
- CCOC(=O)Cc1cc(=O)n2[nH]c(C)c(-c3ccc(OC)cc3)c2n1
  1e-09, i, 0.1%, 19%, i
- Cc1ccc(NC(=O)Cn2nnc(C(=O)Nc3ccc(C)c(C)c3)c2N)cc1
  5e-09, i, 1.6%, -11%, i
- CCOC(=O)CSc1nnc(CNc2cccc(Cl)c2)n1-c1ccccc1
  3.1e-08, i, -1.5%, ?, i
- CCOC(=O)C(C)Sc1nc2c(c(=O)[nH]c(=O)n2C)n1CCc1ccccc1 (centres undefined)
  1.7e-08, i, 2.8%, 23%, i
- Cc1ccc(S(=O)(=O)NC(C)C(=O)Nc2ccc(C(N)=O)cc2)cc1 (centres undefined)
  1e-09, i, -1.8%, 3%, i
- CS(=O)(=O)Nc1ccc(-c2n[nH]c(=S)n2-c2ccccc2)cc1
  2.2e-08, i, 1.1%, 13%, i
- COc1ccc(CNC(=O)CCCCCn2c(SCC#N)nc3cc4c(cc3c2=O)OCO4)cc1
  1e-09, i, 0.0%, ?, i
- C/C(CCN1CCCc2nc(C)c(C)cc21)=N\OC[C@@H](O)[C@@H]1O[C@@H]2OC(C)(C)O[C@@H]2[C@H]1O
  nt, nt, 3.2%[11.5 µM], 2%[11.4 µM], nt
- c1ccc2sc(N3CN(CCN4CCOCC4)CN(c4nc5ccccc5s4)C3)nc2c1
  1.6e-08, i, 2.3%, 20%, i
- CC(C)N(CCNC(=O)C1CCN(S(=O)(=O)N2CCOCC2)CC1)Cc1ccccc1
  4.1e-09, i, -0.5%, 1%[11.4 µM], i
- COCCNC(=O)CN(C(=O)Cn1nnc2ccccc21)c1ccc(F)c(Cl)c1
  2e-09, i, 1.8%, ?, i
- COc1ccccc1N(CN1C(=O)c2ccccc2C1=O)C(=O)c1cccnc1
  8.1e-09, i, 0.2%, 3%, i
- O=C1OC2(c3cc(Br)c(O)c(Br)c3Oc3c2cc(Br)c(O)c3Br)c2c(Cl)c(Cl)c(Cl)c(Cl)c21
  nt, nt, 2.1%, ?, nt
- Cc1ccc(C(=O)O)cc1S(=O)(=O)N1CCOCC1
  1e-09, i, -1.2%, 3%, i
- COc1ccc2[nH]cc(CCNc3ncncc3-c3ccccc3C(F)(F)F)c2c1
  9.2e-09, i, 7.2%, ?, i
- COc1ccccc1NC(=O)Cn1nnc(-c2ccccc2NC(=O)c2cccs2)n1
  1.8e-08, i, 1.4%, -9%, i
- OC(COc1ccc2cc(Br)ccc2c1)CN1CCN(c2ccccn2)CC1 (centres undefined)
  1e-09, i, 0.7%, 12%, i
- CCCCOc1ccc(C(=O)OC(C)CN(C)C)cc1 (centres undefined)
  1e-09, i, 0.7%, ?, i
- O=c1oc2ccccc2n1CSc1nc2ccccc2s1
  3e-08, i, -1.5%, ?, i
- CCN(CC)CCCN1C(=O)C(O)=C(C(=O)c2cc3cccc(OC)c3o2)C1c1ccncc1 (centres undefined)
  2.5e-08, i, -1.8%, -8%, i
- CCCCCOC(=O)Nc1ccc(S(=O)(=O)Nn2cnnc2)cc1
  nt, nt, -0.7%, -2%, nt
- CSCCC1NC2(C(=O)Nc3c2ccc(Cl)c3C)[C@@H]2C(=O)N(C3CCCC3)C(=O)[C@H]12 (some centres undefined)
  2.2e-08, i, 1.0%, 8%, i
- Cc1c(O)ccc(C(=O)COc2ccccc2F)c1O
  nt, nt, 3.9%, -23%, nt

Rewritten bar-delimited: 2 of the compounds above
SMILES | A647 autofl | A488 autofl | AID923 | TSHR ag | Resorufin fluor
Cc1c(O)ccc(C(=O)COc2ccccc2F)c1O | nt | nt | 3.9% | -23% | nt
CSCCC1NC2(C(=O)Nc3c2ccc(Cl)c3C)[C@@H]2C(=O)N(C3CCCC3)C(=O)[C@H]12 (some centres undefined) | 2.2e-08 | i | 1.0% | 8% | i

Next part.
Results follow in this order: A647 autofl, A488 autofl, AID923, TSHR ag, Resorufin fluor
- Cc1c(C)[n+](=O)c(-c2ccc(F)cc2)c(C)n1[O-]
  nt, nt, 1.7%, ?, nt
- COc1ccc(CN(C(=O)CN2C(=O)COc3ccccc32)C2CCCC2)c(OC)c1
  1e-09, i, -0.6%, ?, i
- O=C1C2ON(c3ccccc3)C(c3cccnc3)C2C(=O)N1c1ccc(Cl)c(Cl)c1 (centres undefined)
  1e-09, i, nt, nt, i
- Clc1ccc(Cl)c(Cl)c1Cl
  nt, nt, 0.5%, 0%, nt
- Cc1cc(N2CCN(c3cccc(C(F)(F)F)c3)CC2)n2ncnc2n1
  3.9e-08, i, 0.0%, ?, i
- CC1CCN(c2ccc(C(=O)O)cc2)CC1
  4.2e-08, i, -1.3%, -1%, i
- Cc1cc(C(=O)NNCc2ccccc2)no1
  1.4e-08, i, 0.3%[25.7 µM], -1%[25.6 µM], i
- CCN(C(=O)c1cn(C)c(=O)c2cc(OC)c(OC)cc12)c1cc(C)ccc1C
  1.3e-09, i, -1.5%, 2%[11.4 µM], i
- COC(=O)Nc1sc2c(c1C(=O)NCc1ccco1)CCC2
  1.9e-08, i, -3.1%, ?, i
- O=C1CC(O)(C(F)F)Oc2ccc3ccccc3c21 (centres undefined)
  1e-09, i, 6.5%, nt, i
- CC(=O)OCc1c(COC(C)=O)[n+](=O)c2ccccc2n1[O-]
  1e-09, i, nt, nt, i
- CN(CCC#N)C(=O)Cn1nc(Cc2ccncc2)c2ccccc2c1=O
  nt, nt, -1.5%, -3%, nt
- CCOc1cc(C(=S)N2CCOCC2)ccc1O
  nt, nt, 1.7%, -6%, nt
- CC1Cc2cc(-c3csc(NC(=O)Cc4cccs4)n3)ccc2N1S(C)(=O)=O (centres undefined)
  2.3e-08, i, 0.9%, nt, i
- C=CCOc1nc2c(c(=O)n(C)c(=O)n2C)n1Cc1ccc(Cl)cc1
  5.9e-08, i, nt, nt, i
- Cc1nc(N=Nc2ccc(S(=O)(=O)O)cc2S(=O)(=O)O)c(COP(=O)(O)O)c(C=O)c1O
  1.9e-08, i, 16%&-3.2%, 14%, i
- N#Cc1nc(-c2cccs2)oc1N1CCN(Cc2ccccc2)CC1
  2.2e-09, i, -0.8%, ?, i
- CC(CC(=O)O)CC(=O)Nc1ccccc1C(=O)O (centres undefined)
  1.2e-09, i, -1.9%, -5%, i
- COCCCn1c(SCC(=O)n2c(C)c(C)c3ccccc32)nnc1-c1ccoc1C
  2.2e-08, i, 6.5%, 0%, i
- c1ccc(Nc2cc(Nc3ccccc3)[nH]n2)cc1
  4e-08, i, 0.1%, ?, i

Given as a markdown table: 3 of the compounds above.
| structure | A647 autofl | A488 autofl | AID923 | TSHR ag | Resorufin fluor |
| --- | --- | --- | --- | --- | --- |
| CC(=O)OCc1c(COC(C)=O)[n+](=O)c2ccccc2n1[O-] | 1e-09 | i | nt | nt | i |
| CN(CCC#N)C(=O)Cn1nc(Cc2ccncc2)c2ccccc2c1=O | nt | nt | -1.5% | -3% | nt |
| CCOc1cc(C(=S)N2CCOCC2)ccc1O | nt | nt | 1.7% | -6% | nt |

Next structures
Results follow in this order: A647 autofl, A488 autofl, AID923, TSHR ag, Resorufin fluor
- O=C1c2ccccc2-c2nc3ncnn3c(-c3ccccc3)c21
  1.9e-08, i, -0.4%, -5%, i
- Cc1nc(C)c(C(=O)Nc2cccc(Cl)c2)o1
  1.7e-08, i, 6.4%, 0%, i
- COC(=O)c1ccc(N/C(C)=C/C(=O)c2ccc(C)o2)cc1
  1e-09, i, -1.4%, 26%, i
- COc1ccc(C2N(C(=O)CN3CCOCC3)CCN2S(=O)(=O)c2ccccc2)cc1 (centres undefined)
  9.5e-09, i, 0.3%, 11%, i
- O=C(O)CS(=O)c1ccc2c3c(cccc13)C(=O)c1ccccc1-2 (centres undefined)
  5.3e-08, i, 8.8%[11.5 µM], -5%[11.4 µM], i
- Cc1cccc(NC(=O)CS(=O)(=O)c2cn(C)c3ccccc23)c1C
  5.2e-09, i, 1.1%, 2%, i
- O=C1c2ccccc2OCOc2ccccc21
  nt, nt, 1.6%, ?, nt
- COc1cc2c(cc1NC(=O)c1ccco1)CCCC2
  nt, nt, 0.0%, ?, nt
- Cc1[nH]c2ccccc2c1/C=N/n1cnnc1
  2.9e-08, i, 0.4%, 7%, i
- Cc1sc2nc(N)sc2c1C
  1e-09, i, 0.1%, -1%, i
- O=C(NC1CCS(=O)(=O)C1)c1ccccc1C(=O)c1ccccc1 (centres undefined)
  nt, nt, -0.2%, -5%, nt
- O=C(NCc1ccc2c(c1)OCO2)C1CCN(S(=O)(=O)c2cccc3nsnc23)CC1
  1e-09, i, 1.7%, -12%, i
- O=S(=O)(c1ccc(C2=CSC3=NCCN23)cc1)N1CCOCC1
  1e-09, i, -2.6%, 0%[11.4 µM], i
- O=C(NCCN1CCCCCC1)C1CCC(CNS(=O)(=O)c2cccc3cccnc23)CC1 (centres undefined)
  nt, nt, -2.6%, -11%, nt
- Cc1ccc(OCCSc2cc(C)nc(N)n2)cc1
  nt, nt, 0.2%, ?, nt
- O=C(COC(=O)C1CCN(S(=O)(=O)c2cccs2)CC1)c1ccc2c(c1)OCCO2
  3.7e-09, i, -1.6%, 3%, i
- COc1ccccc1N1CCN(C(=O)CSc2nnc(-c3ccoc3C)o2)CC1
  1.6e-08, i, 0.7%, 4%, i
